Compound activity: PubChem BioAssay, several laboratories
FPR binder – ligands of human FPR, also counter-screen for FPRL1 ligands; FPR-expressing cells, fluorescent ligand binding, flow cytometry; inhibition, %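 (tested at 6.7 µM)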; 24,000 compounds, 0.74% hits;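 note: 0% = buffer wells and 100% = receptor blocker peptide wells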
Target sequence (P21462 whole entry, looked up): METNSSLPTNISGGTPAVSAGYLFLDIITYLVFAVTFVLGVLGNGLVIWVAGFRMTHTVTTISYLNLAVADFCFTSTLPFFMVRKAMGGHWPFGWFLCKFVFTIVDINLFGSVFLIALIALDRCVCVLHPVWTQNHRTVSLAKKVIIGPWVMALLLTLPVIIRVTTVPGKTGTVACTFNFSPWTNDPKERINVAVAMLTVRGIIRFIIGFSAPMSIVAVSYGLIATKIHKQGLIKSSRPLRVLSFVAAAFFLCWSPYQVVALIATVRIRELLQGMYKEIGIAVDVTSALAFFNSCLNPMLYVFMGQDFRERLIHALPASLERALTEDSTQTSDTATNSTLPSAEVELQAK
VCAM-1 down imaging – inhibitors of TNFa-induced VCAM-1 surface display, imaging, high-content imaging, pooled HUVEC, TNFa stimulus (AID 456) | 10,000 compounds, 0.2% hits | HUVEC TNFa-induced VCAM-1 surface expression, immunofluorescence imaging; numbers were filed only for top-ranked candidate wells | inhibition, % at 5 µM, or IC50 in µM where a hit was titrated;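 active = top tenth filtered wells with inhibition above zero that passed visual or statistical confirmation; inactive = the rest, including hits rejected on review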;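 note: 0% = stimulated vehicle wells and 100% = unstimulated cells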
FPRL1 ligand – binds the human formylpeptide receptor-like-1 FPRL1; P25090; FPRL1-expressing cells, fluorescent ligand binding inhibition, flow cytometry; inhibition, %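 (tested at 6.7 µM)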; 24,000 compounds, 0.3% hits; AID 441;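 note: 0% = buffer alone and 100% = receptor blocker peptide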
Target sequence (P25090 whole entry, looked up): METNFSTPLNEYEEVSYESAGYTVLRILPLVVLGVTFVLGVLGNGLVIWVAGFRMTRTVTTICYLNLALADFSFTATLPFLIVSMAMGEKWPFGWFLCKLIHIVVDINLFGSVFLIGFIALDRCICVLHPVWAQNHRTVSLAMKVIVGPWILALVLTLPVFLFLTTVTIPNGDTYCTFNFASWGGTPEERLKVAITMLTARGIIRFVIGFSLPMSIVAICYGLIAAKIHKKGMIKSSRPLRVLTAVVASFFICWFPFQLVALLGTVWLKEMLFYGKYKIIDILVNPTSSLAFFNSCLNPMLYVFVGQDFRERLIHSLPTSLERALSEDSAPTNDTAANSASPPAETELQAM
VCAM-1 down – suppression of endothelial VCAM-1 upregulation – cell-based, plate reader, pooled HUVEC, TNFa stimulus (AID 454); 10,000 compounds, 0.2% hits; inhibition, % at 5 µM; HUVEC TNFa-induced VCAM-1 surface immunofluorescence, plate reader; numbers were filed only for top-ranked candidate wells;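 active = compound among top-ranked inhibitors of TNF-induced VCAM-1 adhesion protein staining, with the hit upheld by image or statistical review; inactive = the rest, including hits rejected on review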;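 note: 0% = TNFa with vehicle and 100% = cells without TNFa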
VCAM-1 up imaging – enhancers of VCAM-1 display on endothelial cells, imaging, high-content imaging, pooled HUVEC, TNFa stimulus (AID 457) | Pooled HUVEC, TNFa-induced VCAM-1 immunofluorescence imaging; hits of this screen are not shown here | calls only | 10,000 compounds, 0.2% hits;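 active = a top-ranked rise in VCAM-1 staining upheld on image or statistical review; inactive = the rest, including candidates rejected on review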;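 note: compounds tested at 5 µM in the well; cells exposed to compound for 24 hours before fixing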
* marks the source's active call; other numbers are inactive results; i = inactive; / = not tested or not shown.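 Rule for the calls, unless noted: active = mean above 30%; inconclusive = self-fluorescent; inactive = the rest.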 This is a subset (hit frequency here may not be typical).

Structure,FPR binder,FPRL1 ligand,VCAM-1 up imaging,VCAM-1 down,VCAM-1 down imaging
Oc1ccc(-c2onc(C(F)(F)F)c2-c2cscn2)c(O)c1,0,-5,i,i,i
Cc1ccc(-n2c(=O)c(C#N)cc3c(=O)n4ccccc4nc32)cc1,2,-5,i,i,i
COc1cccc(CNc2nc3nc(C)c(Cl)c(C)n3n2)c1,-2,-2,i,i,i
O=C(O)c1cccc(N2CCCC2=O)c1,-7,-4,/,/,/
CCN(CC)CCNC(=O)CS(=O)Cc1nc(-c2ccc(Cl)cc2)oc1C (configuration not stated),-6,-3,/,/,/
CCC1=[N+]([O-])C(C)(/C(C)=N\O)N(O)C1(C)C (configuration not stated),1,-6,/,/,/
CCn1c(C)c(CCC(=O)O)c(=O)n2nc(-c3ccccc3OC)cc12,-7,-1,i,i,i
O=C(NCc1nc2ccccc2[nH]1)c1ccc(Cl)c(S(=O)(=O)N2CCCC2)c1,-11,0,i,i,i
Cc1nc2cc(C(=O)O)ccc2n1-c1ccc(F)cc1F,0,1,i,i,i
CCn1cc(C(=O)N2CCN(Cc3ccc4c(c3)OCO4)CC2)c2cc(OC)c(OC)cc2c1=O,7,1,/,/,/
Cc1oc(-c2ccc(Cl)cc2)nc1CN1CCC(C(=O)N2CCc3ccccc3C2)CC1,-3,-10,/,/,/
Cc1ccc(C2CC(c3ccccc3Cl)n3nc(N)nc3N2)cc1 (configuration not stated),-2,-3,/,/,/
Cn1cccc1Cc1nnc(SCC(=O)N2CCCCCC2)n1-c1ccc(F)cc1,1,6,/,/,/
Cc1cccc(N(C)c2cc(C)nc3nc(C)nn23)c1,-3,2,/,/,/
CCn1c(=O)c(-[n+]2ccccc2)c(O)c2ccccc21,-4,1,/,/,/
CCn1cc(C(=O)N2CC(C)CC(C)C2)c(=O)c2cc(S(=O)(=O)N(C)C)ccc21 (configuration not stated),1,0,/,/,/
Cc1ccc2cc(C(c3nnnn3CC3CCCO3)N3CCCC4(CCCCC4)C3)c(=O)[nH]c2c1 (configuration not stated),0,-3,i,i,i
O=C(CSc1nnc(CNC(=O)c2ccccc2F)o1)Nc1ccc2c(c1)OCCO2,-7,-2,/,/,/
Cc1cc(Nc2ccc(F)c(Cl)c2)n2nc(C)nc2n1,4,1,/,/,/
COCCCNC(=O)c1ccc(CS(=O)(=O)c2ccc(Br)cc2)o1,3,0,/,/,/
COc1cccc(CNC(=O)C2CCN(S(=O)(=O)N3CCCCC3)CC2)c1,2,0,/,/,/
O=C(NCc1ccco1)c1cc(-c2ccc(F)cc2)on1,2,2,/,/,/
CC(C)OCCCNC(=O)C1CC(=O)N(C2CCCCCCC2)C1 (configuration not stated),4,3,/,/,/
COc1cc2[nH]c(=O)n(CCC(=O)NCc3cccnc3)c(=O)c2cc1OC,4,4,/,/,/
CC(=O)c1ccc(OCC(O)CN2CCN(Cc3ccccc3)CC2)cc1 (configuration not stated),2,7,/,/,/
O=C(NC(C(=O)c1ccccc1)N1CCOCC1)c1cccs1 (configuration not stated),-6,-1,i,i,i
Cc1cccc(NC(=O)c2cc3ccccc3c(=O)o2)n1,-4,2,/,/,/
CCc1ccccc1S(=O)(=O)Cc1ccc(C(=O)N2CCN(c3ccccc3OC)CC2)o1,7,1,/,/,/
O=C(CCN1C(=O)COc2ccccc21)NCc1cccnc1,1,-2,/,/,/
CCOC(=O)c1cccc(NC(=O)C(NS(=O)(=O)c2ccc3c(c2)CCN3C(C)=O)C(C)C)c1 (configuration not stated),1,-5,/,/,/
CN(C)S(=O)(=O)c1ccc(S(=O)(=O)N(Cc2ccco2)Cc2ccccc2Cl)cc1,8,-7,i,i,i
COc1ccc(-c2noc(Cc3ccc(Cl)cc3)n2)cc1OC,5,-6,/,/,/
COC(=O)c1sc(=S)n(-c2cc(F)ccc2F)c1N,-1,-1,/,/,/
O=C1c2ccccc2CCC1C(O)c1ccccn1 (configuration not stated),6,13,/,/,/
CCOC(=O)N1CCN(c2c(N3CC=C(c4ccccc4)CC3)c(=O)c2=O)CC1,5,1,/,/,/
O=C(NC1CCCc2ccccc21)C1CCN(C(=O)c2sccc2-n2cccc2)CC1 (configuration not stated),6,0,/,/,/
O=C(CSc1ccc2nnc(-c3ccccc3)n2n1)N1CCCCC1,-11,-3,/,/,/
Cc1cc(C)nc(NC(=O)NS(=O)(=O)Nc2ccc(Br)cn2)n1,-4,-4,/,/,/
c1ccc(-c2noc(C34CC5CC(CC(C5)C3)C4)n2)nc1,-1,5,i,i,i
Cc1nnc(SCC(=O)Nc2c(Cl)cccc2Cl)[nH]c1=O,0,1,i,i,i
CCN1CCN(c2ncc(C(=O)Nc3ccccc3C(=O)OC)c3ccccc23)CC1,11,18,/,/,/
CCSc1ncc(C#N)c(=O)[nH]1,6,0,i,i,i
N#Cc1c(-c2ccccc2)nc(N2CCCCCC2)[nH]c1=O,0,-1,i,i,i
O=C(CSc1nnc2ccccn12)c1ccccc1,0,0,i,i,i
COc1ccc(Cn2nnnc2C(c2cc3cc(C)cc(C)c3[nH]c2=O)N2CCOCC2)cc1 (configuration not stated),0,-1,i,i,i
CCOc1ccccc1NC(=O)CCC(=O)Nc1ccc2nc(N3CCN(C)CC3)cc(C)c2c1,1,3,/,/,/
Cc1cc(-n2c(C)cc(C(=O)CSc3nc4ccccc4c(=O)n3Cc3ccco3)c2C)no1,-15,-14,i,i,i
COc1ccccc1N1CCN(C(=O)c2cc(-c3ccc(Br)cc3)on2)CC1,-3,1,/,/,/
CCOc1ccc(N(CC(=O)OC)S(=O)(=O)c2c(C)noc2C)cc1,-19,-1,/,/,/
CCCn1c(N)c(C(=O)CSc2nnc(Cc3ccccc3)o2)c(=O)n(C)c1=O,4,3,i,i,i
CCCCCCOC(=O)C(C#N)c1nc2ccccc2nc1N1CCCCC1 (configuration not stated),4,-2,i,i,i
O=C(Cn1nc(C(F)(F)F)c2c1CCCC2)NCCN1CCOCC1,5,-1,i,i,i
COC(=O)c1[nH]c(C)c(/C(O)=C2\C(=O)C(=O)N(CCN3CCOCC3)C2c2ccccc2OC)c1C (configuration not stated),4,14,/,/,/
CCN1CCN(c2nc3c(c(=O)[nH]c(=O)n3C)n2CCSc2nc3ccccc3s2)CC1,11,6,i,i,i
Cc1ccc(S(=O)(=O)N(C)Cc2cc3ccccc3[nH]c2=O)cc1,-11,-1,i,i,i
CCOc1cc(C#N)c(NC(=O)c2ccco2)cc1OCC,-4,0,/,/,/
CC(C)(C)n1ncc2c(=O)n(CC(=O)N3CCCCCC3)cnc21,-4,2,/,/,/
Oc1c(CN2CCOCC2)cc(-c2ccccc2)cc1CN1CCOCC1,-7,8,/,/,/
Cc1ccc(NC(=O)CN(C)S(=O)(=O)c2cccc3cccnc23)cc1,-3,6,/,/,/
N#Cc1c(NC(=O)CSc2nc(N)cc(=O)[nH]2)sc2c1CCCCCC2,-15,-5,i,i,i

Part of the list above in a different format.
molecule: CCCn1c(N)c(C(=O)CSc2nnc(Cc3ccccc3)o2)c(=O)n(C)c1=O
  FPR binder: 4
  FPRL1 ligand: 3
  VCAM-1 up imaging: i
  VCAM-1 down: i
  VCAM-1 down imaging: i

molecule: Oc1c(CN2CCOCC2)cc(-c2ccccc2)cc1CN1CCOCC1
  FPR binder: -7
  FPRL1 ligand: 8
  VCAM-1 up imaging: /
  VCAM-1 down: /
  VCAM-1 down imaging: /

Carrying on.
Structure,FPR binder,FPRL1 ligand,VCAM-1 up imaging,VCAM-1 down,VCAM-1 down imaging
CCOC(=O)CSc1cn2c(n1)CCC2,-7,-4,i,i,i
COCCNC(=O)Cn1nc(C(F)(F)F)c(Br)c1C,-6,-3,i,i,i
Nc1nnn(Cc2ccccc2)n1,-2,-3,i,i,i
O=S(=O)(Nc1ccc(O)cc1)c1cccc2cccnc12,1,-2,/,/,/
O=C(c1cc(-c2cccs2)on1)N1CCCCC1,-1,0,/,/,/
CCOC(=O)c1[nH]cc(-c2ccccc2)c1N1CCOCC1,-4,1,i,i,i
Cc1ccc(SC(C)c2nc(-c3ccccc3)no2)cc1 (configuration not stated),-4,-5,i,i,i
O=C(NCc1ccco1)c1cc(-c2cccs2)on1,2,5,/,/,/
O=C(Cn1cnc2c(nnn2Cc2ccccc2F)c1=O)OCc1ccccc1,2,-5,/,/,/
Cc1ccc(N(CC(=O)N2CCn3c2nc2ccccc23)S(=O)(=O)c2c(C)n[nH]c2C)cc1,-5,-9,/,/,/
COc1ccc(S(=O)(=O)CCC(=O)NC2CCCCC2)cc1,-4,5,/,/,/
CCOc1ccc(CCNC(=O)CCc2nc(-c3ccc(C)cc3)no2)cc1OCC,2,2,/,/,/
CC1CC(=O)N(CC(=O)Nc2ccc3c(c2)OCCO3)c2ccccc2S1 (configuration not stated),-7,0,/,/,/
O=C1C=C(c2ccccc2)OC2(CCCC2)O1,-1,-1,/,/,/
CC(=O)C1C(c2ccc3ncccc3c2)NC(=O)NC1(O)C(F)(F)F (configuration not stated),4,1,/,/,/
CC(Sc1nc(-c2ccccc2)cc(C(F)(F)F)n1)C(=O)N1CCCC1 (configuration not stated),7,2,i,i,i
CCOC(=O)N1CCN(c2c(NCCCN(C)c3ccccc3)c(=O)c2=O)CC1,6,4,/,/,/
CCOc1ccc(NS(=O)(=O)c2cc(Cl)ccc2OC)cc1,10,-3,i,i,i
CCC(=O)Nc1nonc1-c1nc2ccccc2n1Cc1ccc(Cl)c(Cl)c1,1,-5,/,/,/
CCCCCn1c(=O)[nH]c2cc(C(=O)NCCCN3CCC(C)CC3)ccc2c1=O,-3,4,/,/,/
COc1ccc(S(=O)(=O)N2CCN(C3CCCCCCC3)CC2)cc1,-2,4,i,i,i
O=C(NCCCN1CCOCC1)C1CCC(=O)N1CCc1ccccc1 (configuration not stated),-1,1,/,/,/
Cn1c(=O)c2nc(-c3ccccc3)oc2c2ccccc21,6,-5,/,/,/
O=c1cc(N2CCN(c3ccc(F)cc3)CC2)[nH]c(=O)n1C1CCCCC1,3,-5,/,/,/
CCCc1cc2c(=O)c(-c3ccccn3)c(C)oc2cc1O,-13,-5,/,/,/
CCCCCCc1c(O)nc(SCC(=O)O)[nH]c1=O,-2,-11,/,/,/
CC1CCCC(C)N1c1nnc(NC(=O)Cn2c(=O)oc3ccccc32)s1 (configuration not stated),10,-4,/,/,/
O=C(CN1C(=O)CCS(=O)(=O)c2ccccc21)Nc1ccc2c(c1)OCCO2,-5,-2,/,/,/
O=C(CSc1nnc(C2COc3ccccc3O2)o1)NC1CCCCC1 (configuration not stated),2,0,/,/,/
COc1ccc(C)cc1NC(=O)c1nnn(CCc2ccccc2)c1N,0,2,/,/,/
Cc1nn(-c2ccc(C(=O)O)cc2)c(=O)c2ccccc12,-8,-1,/,/,/
O=C(N[C@@H](Cc1ccccc1)C(=O)O)c1cccnc1,3,-1,/,/,/
COc1ccc(Nc2nc(OC)nc(N3CCN(c4ccc(OC)cc4)CC3)n2)cc1,-5,3,i,i,i
CC1(C)Oc2ccc3ccc(=O)oc3c2/C(=C/NCCO)C1=O,0,-6,/,/,/
CCOc1cc2c(cc1OCC)C(C(=O)O)C(c1ccc(OC)c(O)c1)N(C)C2=O (configuration not stated),12,1,/,/,/
O=C(CN1CCN(c2ccccn2)CC1)N1c2ccccc2CCc2ccccc21,-3,-2,i,i,i
Cc1cc2cc(CN(CC3CCCO3)C(=O)c3cnccn3)c(=O)[nH]c2cc1C (configuration not stated),-5,-3,i,i,i
O=C(CSc1ncnc2c1nnn2-c1ccc(F)cc1)NCc1ccco1,7,-4,/,/,/
